StopGo reporter – High Throughput Screening for Foot and Mouth Disease Virus Antivirals; Potency, µM (doses to about 57.9 µM), for the others: at the highest dose signal change, negative = less light; actives 1.2% (n = 410,000); human cells with a luciferase reporter of 2A StopGo recoding; control for the full effect not named in the record; active = well fitted falling curve with a large enough effect; inconclusive = small, poorly fitted or top-dose-only effect; inactive = no such curve, though single readings can be large or run the other way; tested in HEK293T cells; also: % is scaled to controls: 0 for no effect and ±100 for the full control effect; nearly all actives have a fitted effect of over 45% in size; luciferase light after 4 h
Cruzain inh noDet – qHTS Assay for Promiscuous and Specific Inhibitors of Cruzain (without detergent); Cruzipain (Trypanosoma cruzi), P25779; purified cruzain, Z-FR-AMC fluorescence, no detergent; Potency, µM, for the others: max response, negative = inhibition, most hits filed as inhibitors; actives 2.3% (n = 200,000); active = well fitted curve in the direction sought with a large enough effect; inconclusive = small, poorly fitted or top-dose-only effect, or another doubt; inactive = no such curve, though single readings can be large; an effect the other way counts as inactive or inconclusive;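 also: plate controls were enzyme without inhibitor for no effect and buffer without enzyme for full effect; nearly all actives have a fitted effect of over 40% in size; top concentration of the series not given in the record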
Target sequence (P25779 123-467 limits assumed): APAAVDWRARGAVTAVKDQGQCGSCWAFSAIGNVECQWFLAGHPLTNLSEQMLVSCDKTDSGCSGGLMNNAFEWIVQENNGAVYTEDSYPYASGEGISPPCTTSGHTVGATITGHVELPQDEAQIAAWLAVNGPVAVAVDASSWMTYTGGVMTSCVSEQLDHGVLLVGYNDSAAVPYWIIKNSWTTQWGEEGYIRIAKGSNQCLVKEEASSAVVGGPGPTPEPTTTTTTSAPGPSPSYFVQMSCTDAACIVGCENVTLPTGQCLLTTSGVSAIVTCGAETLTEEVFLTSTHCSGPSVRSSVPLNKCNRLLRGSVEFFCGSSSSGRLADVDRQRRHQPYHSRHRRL
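Purified cruzain at 1.5 nM, pre-incubated 15 min with compound at room temperature in 100 mM sodium acetate pH 5.5, 5 mM DTT, 0.00005% Triton X-100. Reaction started with 2 uM Z-FR-AMC; AMC fluorescence increase over 60 s gives rate.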
SARS PLP yeast – qHTS of Yeast-based Assay for SARS-CoV PLP; Potency, µM (doses to about 32.9 µM), for inactives: at the highest dose activity, positive = growth rescue; S. cerevisiae expressing SARS-CoV PLpro, growth rescue; control for the full effect not named in the record; AID 485353, 2010; actives 0.19% (n = 330,000); also: 0% is about no effect; nearly all actives have a fitted effect of over 55% in size; growth read by luminescence after 48 h
NS1 inh – qHTS Assay for Inhibitors of Influenza NS1 Protein Function; AID 2326, 2010; actives 0.4% (n = 270,000); S. cerevisiae slowed by influenza A NS1, growth recovery by OD600; Potency, µM (doses to about 46.1 µM), inactives show at the highest dose activity, positive = more growth; also: actives are rising curves; nearly all actives have a fitted effect of over 50% in size
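A cell-based growth assay was used: compounds that relieve NS1-induced slow growth of budding yeast raise OD600. Assay medium was yeast nitrogen base with ammonium sulphate and -URA supplement, pH 6.0, with 2% galactose.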
Marburg entry inh – qHTS for inhibitors of binding or entry into cells for Marburg Virus; Marburg virus pseudotyped entry inhibition, cell reporter; control for the full effect not named in the record; about a third of the inactives were read at about 46 µM; Potency, µM (titrated, usually from 37.8 µM), inactives show at the top dose activity change, negative = inhibition, hits mostly inhibitors; actives 1.8% (n = 300,000); AID 540276, 2011; active = well fitted inhibition curve with a large enough effect; inconclusive = small, poorly fitted or top-dose-only effect, or effect the other way; inactive = flat fitted curve, though single readings scatter; tested in HEK293 cells; about a fifth of its hits are not listed in these tables; also: % is scaled to controls: 0 for no effect and ±100 for the full control effect; luciferase read-out
LASV entry inh – qHTS for Inhibitors of binding or entry into cells for Lassa Virus; Lassa virus pseudotype entry inhibition, cell reporter; control for the full effect not named in the record; Potency, µM (titrated, usually from 37.9 µM), without a hit: top-dose activity change, negative = inhibition, actives largely listed as inhibitors; actives 1.2% (n = 300,000); AID 540256, 2011; active means well fitted inhibition curve with a large enough effect; inconclusive means small, poorly fitted or top-dose-only effect, or effect the other way; inactive means flat fitted curve, though single readings scatter; tested in HEK293 cells; also: % is scaled to controls: 0 for no effect and ±100 for the full control effect; nearly all actives have a fitted effect of over 50% in size; luciferase read-out
RE007 growth inh – qHTS Assay for Inhibitors of the HIV-1 protein Vpr; S. pombe RE007 Vpr strain, BacTiter-Glo ATP luminescence, 24 h; control for the full effect not named in the record; AID 651644, 2012; Potency, µM (doses to about 92.2 µM), for inactives: at the highest dose activity change, negative = less growth; actives 0.21% (n = 360,000); active = well fitted falling curve with a large enough effect; inconclusive = small, poorly fitted or top-dose-only effect; inactive = no such curve, though single readings can be large or run the other way;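 also: % is scaled to controls: 0 for no effect and ±100 for the full control effect; nearly all actives have a fitted effect of over 50% in size; the assay follows cell death caused by Vpr and the record does not say whether a fall means rescue or toxicity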
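Fission yeast RE007 carrying one integrated HIV-1 vpr copy, seeded at OD 0.01 in PMG+AL medium with 23 nL pinned compound. Grown 24 h at 30 degrees; viability read by BacTiter-Glo luminescence after 5 min.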
Cruzain Triton – qHTS Assay for Promiscuous and Specific Inhibitors of Cruzain (with detergent); Cruzipain (Trypanosoma cruzi), P25779; purified cruzain, Z-FR-AMC fluorescence, 0.01% Triton; Potency, µM, for the others: max response, negative = inhibition, actives largely listed as inhibitors; actives 0.43% (n = 200,000); active = well fitted curve in the direction sought with a large enough effect; inconclusive = small, poorly fitted or top-dose-only effect, or another doubt; inactive = no such curve, though single readings can be large; an effect the other way counts as inactive or inconclusive;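 also: plate controls were neutral wells for no effect and buffer without enzyme for full effect; nearly all actives have a fitted effect of over 40% in size; top concentration of the series not given in the record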
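Purified cruzain (1.5 nM final) was preincubated with compounds for 15 min at room temperature in 100 mM sodium acetate pH 5.5, 5 mM DTT, 0.01% Triton X-100. Reaction started with 2 uM Z-FR-AMC; AMC fluorescence change over 60 s gave activity.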
Starred values were filed as active, the others as inactive; u = inconclusive; x = not tested or not shown; [ ] = another dose, or the depositor's remark. Unless noted, calls follow the shape of the dose curve; as a rule, active means well fitted rising curve with a large enough effect; inconclusive means small, poorly fitted or top-dose-only effect; inactive means no such curve, though single readings can be large or run the other way. Potency is read from the fitted curve at half-maximal effect.

(1) COc1ccc(/C(O)=C2/C(=O)C(=O)N(CCN3CCNCC3)C2c2cccc([N+](=O)[O-])c2)cc1 (stereo unspecified)
(2) COc1ccc(N2CCN(CC(=O)Nc3ccc(C)c(C)c3)CC2)cc1
(3) Nc1c(C(=O)Nc2ccccc2Cl)nnn1-c1ccc2c(c1)OCCO2
(4) CC12CCC(c3c(C(=O)O)nn(-c4ccc(F)cc4)c31)C2(C)C (stereo unspecified)
(5) COCCSc1nnc(NS(=O)(=O)c2ccccc2)s1
(6) Cc1ccc(NC(=O)C2CCN(C(=O)c3ccco3)CC2)cc1C
(7) Nc1ccc2c(c1)Cc1cc([N+](=O)[O-])ccc1-2
(8) CC1(C)Cc2c(cnn2-c2cccc(F)c2)C(NC(=O)c2ccc[n+]([O-])c2)C1 (stereo unspecified)
assay / compound	1	2	3	4	5	6	7	8
StopGo reporter	-13%	-6%	10%	22%	-10%	9%	21%	-19%
Cruzain inh noDet	x	x	x	16%	x	x	x	x
SARS PLP yeast	-5%	-6%	4%	-2%	0%	1%	4%	0%
NS1 inh	-1%	-14%	-2%	0%	2%	-2%	x	-5%
Marburg entry inh	14%	x	7%	-18%[46.1 µM]	17%[46.1 µM]	7%[46.1 µM]	u	-6%
LASV entry inh	17%	x	-7%	-1%	-12%[46.1 µM]	u	u	19%
RE007 growth inh	-1%	-10%	-12%	8%	-3%	0%	-2%	3%
Cruzain Triton	x	x	x	3.1%	x	x	x	x

In the list so far, 2 contain an aryl methoxy group:
(1) COc1ccc(/C(O)=C2/C(=O)C(=O)N(CCN3CCNCC3)C2c2cccc([N+](=O)[O-])c2)cc1 (stereo unspecified)
(2) COc1ccc(N2CCN(CC(=O)Nc3ccc(C)c(C)c3)CC2)cc1
assay / compound	1	2
StopGo reporter	-13%	-6%
Cruzain inh noDet	x	x
SARS PLP yeast	-5%	-6%
NS1 inh	-1%	-14%
Marburg entry inh	14%	x
LASV entry inh	17%	x
RE007 growth inh	-1%	-10%
Cruzain Triton	x	x

Later entries:
(9) COc1cccc(NC(=O)COc2coc(CN3CCc4ccccc4C3)cc2=O)c1
(10) CCOC(=O)C(CC)/C(C)=N\NC(=O)c1ccccc1O (stereo unspecified)
(11) Cc1cccc2nc(CSc3ccccc3N)cn12
(12) Cc1ccc(C)c(N2CCN(Cc3csc(C)c3C)CC2)c1
(13) COc1ccc(-c2nc(CN(Cc3cnn(C)c3)C(C)C)c(C)o2)c(OC)c1
(14) O=C(c1ccc(-n2cncn2)c([N+](=O)[O-])c1)N1CCN(S(=O)(=O)c2ccc(Br)cc2)CC1
(15) Cc1nc2nc(COc3ccccc3)[nH]n2c(=O)c1Cc1ccccc1
(16) CCOc1cc(/C=N/N=C2/NC(=O)C(CC(=O)O)S2)ccc1OCc1ccc(Cl)cc1 (stereo unspecified)
assay / compound	9	10	11	12	13	14	15	16
StopGo reporter	-1%	25%	-3%	u	2%	-26%	0%	-9%
Cruzain inh noDet	x	1%	x	-6%	x	x	-4%	x
SARS PLP yeast	4%	6.3µM*	x	x	0%	1%	0%	-3%
NS1 inh	x	-3%	x	x	7%	x	-2%	x
Marburg entry inh	-12%	u	-24%	x	x	-15%	9%	u
LASV entry inh	16%	-19%	u	-6%[46.1 µM]	x	-17%	12%	0%
RE007 growth inh	4%	-26%	11%	x	-6%	-8%	-6%	2%
Cruzain Triton	x	-7.9%	x	-0.8%	x	x	-2.4%	x

(17) O=C(C1CCN(C2CCN(Cc3ccc4cc(F)ccc4n3)CC2)CC1)N1CCCC1
(18) Cc1ccccc1-n1c(C)c(C#N)c(=O)c(-[n+]2ccccc2)c1[S-]
(19) COc1nc(=O)n(C2CCCO2)cc1C (stereo unspecified)
(20) COc1ccc(C2=NC(c3ccncc3)=Nc3ccc(OC)cc3N2)cc1
(21) COCCC(=O)N1CCC(Oc2ccc(C(=O)N3C[C@@H](C)O[C@@H](C)C3)cc2)CC1
(22) CCSc1nnc(NC(=O)CSc2nnc(CNC(=O)c3ccc(OC)c(OC)c3)o2)s1
(23) COC(=O)c1cccc(Nc2ncnc3ccc(C)cc23)c1
(24) Cc1nc2ccccc2c2oc(C(=O)NCCN3CCCCC3C)cc12 (stereo unspecified)
assay / compound	17	18	19	20	21	22	23	24
StopGo reporter	-12%	-5%	-15%	-3%	20%	0%	x	-21%
Cruzain inh noDet	x	x	x	u	x	-4%	5%	-5%
SARS PLP yeast	0%	3%	x	x	-7%	14%	-11%	u
NS1 inh	-2%	7%	x	x	-4%	18%	-47%	-22%
Marburg entry inh	14%[46.1 µM]	x	16%	u	5%	u	u	21µM*
LASV entry inh	4%[46.1 µM]	x	25%	-5%[46.1 µM]	-24%	-2%	14%	6%
RE007 growth inh	1%	7%	7%	x	20%	22%	-15%	-14%
Cruzain Triton	x	x	x	-5.9%	x	-0.9%	-7.7%	-0.5%

No new results follow: entries from further up.
(17) O=C(C1CCN(C2CCN(Cc3ccc4cc(F)ccc4n3)CC2)CC1)N1CCCC1
(18) Cc1ccccc1-n1c(C)c(C#N)c(=O)c(-[n+]2ccccc2)c1[S-]
(19) COc1nc(=O)n(C2CCCO2)cc1C (stereo unspecified)
assay / compound	17	18	19
StopGo reporter	-12%	-5%	-15%
Cruzain inh noDet	x	x	x
SARS PLP yeast	0%	3%	x
NS1 inh	-2%	7%	x
Marburg entry inh	14%[46.1 µM]	x	16%
LASV entry inh	4%[46.1 µM]	x	25%
RE007 growth inh	1%	7%	7%
Cruzain Triton	x	x	x

Remaining list, next part.
Short forms – A = StopGo reporter; B = Cruzain inh noDet; C = SARS PLP yeast; D = NS1 inh; E = Marburg entry inh; F = LASV entry inh; G = RE007 growth inh; H = Cruzain Triton
25	Cc1nc2ncnn2c(Nc2ccc3c(c2)OCO3)c1Cc1ccccc1
  A: u	B: -11%	C: 1%	D: -9%	E: -20%	F: -23%	G: 5%	H: -6.1%
26	Cc1ccc2ccc(S(=O)(=O)NCc3ccccn3)cc2c1
  A: 37%[activator]	B: x	C: -3%	D: -5%	E: 14%[46.1 µM]	F: 12%[46.1 µM]	G: 5%	H: x
27	CCOC(=O)c1c(N)c(C#N)cn1-c1ccccc1
  A: 3%	B: 25%	C: 1%	D: 5%	E: -3%	F: 11%	G: 10%	H: 3.4%
28	Cc1cc(OC(C)C(=O)NCc2cccnc2)c2c(C)c(Cc3ccccc3)c(=O)oc2c1 (stereo unspecified)
  A: 5%	B: x	C: -1%	D: 3%	E: x	F: x	G: 9%	H: x
29	Cn1cc(S(=O)(=O)NC2CCCC2)c(=O)n(C)c1=O
  A: -3%	B: x	C: 1%	D: x	E: -3%	F: -7%	G: 0%	H: x
30	COCCn1c(-c2ccc(Br)cc2)nc2oc3cc(OC)ccc3c(=O)c2c1=O
  A: -3%	B: x	C: 2%	D: -33%	E: x	F: x	G: -11%	H: x
31	O=c1c2ccccc2n(Cc2ccccc2F)c(=O)n1-c1cccc(F)c1
  A: -24%	B: -4%	C: x	D: x	E: 27%[46.1 µM]	F: -11%[46.1 µM]	G: x	H: -2.1%
32	CCOc1ccc(N2CC(C(=O)N3CCN(C(=O)c4ccco4)CC3)CC2=O)cc1 (stereo unspecified)
  A: 5%	B: x	C: 10%	D: u	E: 2%[46.1 µM]	F: u	G: -6%	H: x
33	COC(=O)CC1SC(=O)NC1=Nc1cccc(C)c1 (stereo unspecified)
  A: -4%	B: -5%	C: -12%	D: 13%	E: u	F: 8%	G: 8%	H: -1.0%
34	CCOc1cc2[nH]c(=S)n(CCCN3CCCC3=O)c(=O)c2cc1OCC
  A: 4%	B: -10%	C: 5%	D: -2%	E: -5%	F: -21%	G: 2%	H: 0.6%
35	O=C(O)C(Cc1ccc(O)cc1)N1C(=O)c2ccccc2C1=O (stereo unspecified)
  A: -10%	B: x	C: -1%	D: 5%	E: x	F: x	G: -10%	H: x

Random excerpt: five entries already listed, in no set order.
Short forms – A = StopGo reporter; B = Cruzain inh noDet; C = SARS PLP yeast; D = NS1 inh; E = Marburg entry inh; F = LASV entry inh; G = RE007 growth inh; H = Cruzain Triton
13	COc1ccc(-c2nc(CN(Cc3cnn(C)c3)C(C)C)c(C)o2)c(OC)c1
  A: 2%	B: x	C: 0%	D: 7%	E: x	F: x	G: -6%	H: x
35	O=C(O)C(Cc1ccc(O)cc1)N1C(=O)c2ccccc2C1=O (stereo unspecified)
  A: -10%	B: x	C: -1%	D: 5%	E: x	F: x	G: -10%	H: x
2	COc1ccc(N2CCN(CC(=O)Nc3ccc(C)c(C)c3)CC2)cc1
  A: -6%	B: x	C: -6%	D: -14%	E: x	F: x	G: -10%	H: x
4	CC12CCC(c3c(C(=O)O)nn(-c4ccc(F)cc4)c31)C2(C)C (stereo unspecified)
  A: 22%	B: 16%	C: -2%	D: 0%	E: -18%[46.1 µM]	F: -1%	G: 8%	H: 3.1%
14	O=C(c1ccc(-n2cncn2)c([N+](=O)[O-])c1)N1CCN(S(=O)(=O)c2ccc(Br)cc2)CC1
  A: -26%	B: x	C: 1%	D: x	E: -15%	F: -17%	G: -8%	H: x

Assay outcomes: PubChem BioAssay, National Center for Advancing Translational Sciences (NCATS)
